p53 HeLa = nuclear p53 accumulation, HPV+ cells – imaging, p53-positive nuclei imaging, 24 h, 48 h (AID 1508601); p53-positive nuclei, normalised, % at 11 µM unless noted; p53-positive nuclei imaging, 48 h; stronger effect = higher value; some inactives read as strong as hits; 1% of 5,700 active;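 active = mean of two plates above 50% at 24 h or at 48 h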;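 note: HPV-positive HeLa cells with a fluorescent p53 stability reporter; 0% = vehicle and 100% = proteasome inhibitor control; doses worked out from stocks diluted about 900-fold with the highest of each compound shown; many of its hits are not listed in these tables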
p53 HeLa cells 24 h = recorded beside p53 HeLa, whose call it bears; nuclei count, normalised, %; measured here: cell number at 24 h;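 100% = vehicle wells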
p53 HeLa p53 24 h = further read-out of p53 HeLa, marked with its call; p53-positive nuclei, normalised, %; measured here: p53 positive nuclei at 24 h;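 0% = vehicle and 100% = positive control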
p53 HeLa cells 48 h = further read-out of p53 HeLa, marked with its call; nuclei count, normalised, %; measured here: cell number at 48 h;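 100% = vehicle wells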
Active calls of the source: *; [ ] = dose if it differs, or a comment. The list is partial (hit frequency here may not be typical).

SMILES	p53 HeLa	p53 HeLa cells 24 h	p53 HeLa p53 24 h	p53 HeLa cells 48 h
N#CC1C[C@@H]2C[C@H]2N1C(=O)C(N)C12CC3CC(CC(O)(C3)C1)C2 (stereo partly specified)	-0.6[3.7 µM]	112.9	-0.2	110.4
Cc1cnc(CNC(=O)c2c(=O)c3ccc(N4CCCN(C)CC4)nc3n3c2sc2ccccc23)cn1	-0.4	54.5	0.0	35.3
Cc1nc2ccc(C(=O)N3CCC4(CC3)CC(=O)c3c(cnn3C(C)C)C4)cc2[nH]1	0.1	103.3	0.0	119.4
CC(C)(C#N)c1cc(Cn2cncn2)cc(C(C)(C)C#N)c1	0.0	90.5	0.1	82.9
CC(=O)Nc1cccc2c1c(Sc1ccc(Cl)cc1)c(C)n2CC(=O)O	0.2[3.7 µM]	77.8	-0.1	79.6
CC(=CC(=O)OCCCCCCCCC(=O)O)CC1OC[C@H](CC2O[C@H]2C(C)C(C)O)C(O)C1O (stereo partly specified)	-0.1[3.7 µM]	110.2	-0.2	107.1
O=C(O)CCNC(=O)c1ccccc1	0.0[3.7 µM]	112.8	-0.3	104.8
CC1(C)CCC(C)(C)c2cc(C3(c4ccc(C(=O)O)cc4)OCCO3)ccc21	0.0	84.8	-0.1	81.3
Cc1cccc(-c2[nH]c(C(C)(C)C)nc2-c2ccc3c(c2)OCO3)n1	-0.1[3.7 µM]	95.0	0.5	94.3
CC(C)c1ccc(-c2cc(=O)c3ccccc3o2)cc1	0.3	95.2	0.3	100.3
CN1C(CCl)Nc2cc(Cl)c(S(N)(=O)=O)cc2S1(=O)=O (stereo unspecified)	0.0[3.7 µM]	114.6	-0.3	100.2
CN1CC[C@H](c2c(O)cc(O)c3c(=O)cc(-c4ccccc4Cl)oc23)C(O)C1 (stereo partly specified)	4.0	27.3	0.4	20.2
CCCCN(Cc1ccc(C(=O)NO)cc1)C(=O)Nc1ccccc1	5.7	74.8	13.7	67.8
NS(=O)(=O)c1cc2c(cc1Cl)NCNS2(=O)=O	0.1[3.7 µM]	110.1	-0.2	107.6
O=C(Nc1c(Cl)cncc1Cl)c1ccc(OC(F)F)c(OCC2CC2)c1	0.1	102.5	0.0	106.8
CC(=O)NC1C(N=C(N)N)C=C(C(=O)O)O[C@H]1C(O)C(O)CO (stereo partly specified)	-0.3[3.7 µM]	108.4	-0.4	108.6
O=C1CCCC(=O)C1C(=O)c1ccc(C(F)(F)F)cc1[N+](=O)[O-]	-0.1	114.7	0.0	117.3
COc1ccc(-c2ccc3c(N4CCOCC4)nc(N4CC(C)OC(C)C4)nc3n2)cc1CO (stereo unspecified)	-0.6[3.7 µM]	81.5	-0.3	83.8
O=C(NC1CCN(CCCCC2(C(=O)NCC(F)(F)F)c3ccccc3-c3ccccc32)CC1)c1ccccc1-c1ccc(C(F)(F)F)cc1	6.9	47.7	2.2	27.8
NS(=O)(=O)c1ccc(NC(=O)Nc2ccc(F)cc2)cc1	0.1	108.3	0.0	105.9
O=S(=O)(c1cccc2c(Cl)cccc12)N1CCCNCC1	-0.2	93.1	0.1	105.2
CC(=O)C1=C(O)C=C2Oc3c(C(C)=O)c(O)c(C)c(O)c3[C@]2(C)C1=O	0.0[3.7 µM]	107.2	0.0	105.5
CCc1c(-c2ccccc2)c(-c2ccccc2)nn1-c1ccccc1-c1cccc(OCC(=O)O)c1	0.1	107.0	-0.2	107.8
C[C@@H]1C(=O)O[C@H]2CC34[C@H]5C[C@@H](C(C)(C)C)C36C(OC(=O)[C@H]6O)O[C@@]4(C(=O)O5)[C@]21O (stereo partly specified)	0.0[3.7 µM]	88.7	-0.1	94.4
Cc1nc(-c2ccc(OCC(C)C)c(C#N)c2)sc1C(=O)O	-0.1	114.7	-0.1	111.0
Clc1ccc2c(c1)CCc1cccnc1C2=C1CCNCC1	0.0[3.7 µM]	107.8	-0.1	108.2
O=c1c(-c2ccc(O)cc2)coc2c(O)c(O)ccc12	-0.2	112.4	-0.2	109.0
CC(C)C(=O)Oc1ccc(CO)cc1C(CCN(C(C)C)C(C)C)c1ccccc1 (stereo unspecified)	-0.1[3.7 µM]	113.0	-0.5	108.2
CC(C)(Sc1cc(C(C)(C)C)c(O)c(C(C)(C)C)c1)Sc1cc(C(C)(C)C)c(OC(=O)CCC(=O)O)c(C(C)(C)C)c1	0.2	52.0	-0.1	30.9
CCOc1nc2cccc(C(=O)OCc3oc(=O)oc3C)c2n1Cc1ccc(-c2ccccc2-c2noc(=O)[nH]2)cc1	-0.2[3.7 µM]	113.0	-0.5	106.8
Cc1noc(-c2ccc(-c3ccc(CC(=O)O)cc3)cc2)c1NC(=O)OC(C)c1ccccc1Cl (stereo unspecified)	-0.1	114.9	-0.1	114.9
O=C1CN2Cc3c(ccc(Cl)c3Cl)N=C2N1	87.0*	75.8*	6.8*	40.2*
Cc1ccc(COC(=O)N2CCC(CNc3ncccn3)C(F)C2)cc1 (stereo unspecified)	0.1	113.6	0.0	112.1
O=C(O)C(Cc1c[nH]c2ccccc12)N1C(=O)c2ccccc2C1=O (stereo unspecified)	-0.8	114.6	-0.2	112.8
Cc1cc(C=C2SC(=S)NC2=O)c(C)n1-c1cccnc1	0.1[3.7 µM]	115.5	-0.3	109.3
CCC(NC(=O)c1c(C)c(-c2ccccc2)nc2ccccc12)c1ccccc1 (stereo unspecified)	0.2	105.3	-0.1	110.5
CC1CCC(C(=O)N(c2cc(C#CC(C)(C)C)sc2C(=O)O)C2CCC(O)CC2)CC1 (stereo unspecified)	-0.2[3.7 µM]	109.6	-0.5	107.9
Cc1c(-c2ccccc2)oc2c(C(=O)OCCN3CCCCC3)cccc2c1=O	-0.1[3.7 µM]	115.7	-0.3	104.3
CCC(CC)(NC(=O)C(C)C)C(=O)NC(CCCN=C(N)N)C(=O)NC1(C(=O)NC(c2ccc(F)cc2)c2ccc(F)cc2)CCCC1 (stereo unspecified)	-0.1[3.7 µM]	107.2	-0.1	102.3
CCN(CC)C(=O)C(C#N)=Cc1cc(O)c(O)c([N+](=O)[O-])c1	0.0[3.7 µM]	87.6	-0.3	80.0
CN(C)CCOc1ccc(C(=C(CCCl)c2ccccc2)c2ccccc2)cc1	-0.1[3.7 µM]	116.1	-0.4	115.0
Cc1nn(-c2ccccc2)c(C)c1C=NN1CCN(Cc2ccccc2)CC1	0.1[3.7 µM]	106.2	-0.2	101.0
CCCc1ccc(OCC(=O)N(Cc2nc(-c3cccnc3)no2)C(C)C)cc1	-0.1[3.7 µM]	108.0	-0.3	100.9
O=c1cc(N2CCOCC2)oc2c(-c3cccc4c3sc3ccccc34)cccc12	-0.1	73.4	0.1	70.5
O=[N+]([O-])c1ccc2c(c1)S(=O)(=O)C=C2	-0.1[3.7 µM]	96.4	-0.3	99.6
Cc1[nH]c(=O)c(C#N)cc1-c1ccncc1	-0.1	105.5	-0.1	101.0
CCCCNC(=O)NS(=O)(=O)c1ccc(C)cc1	-0.1[3.7 µM]	115.3	-0.3	114.2
O=C(O)C(S)=Cc1c[nH]c2ccc(F)cc12	-0.1[3.7 µM]	112.3	-0.3	106.3
CC(C)CC(NC(=O)CNC(=O)c1cc(Cl)ccc1Cl)B1OC(=O)CC(CC(=O)O)(C(=O)O)O1 (stereo unspecified)	97.7*[3.7 µM]	46.4*	100.7*	36.8*
O=C(Nc1cc(NC(=O)c2ccccc2)c(C(=O)O)cc1C(=O)O)c1ccccc1	-0.3	98.7	-0.1	105.5
CN(C)CCC1(c2ccc(Cl)cc2)Cc2ccccc2C(=O)O1 (stereo unspecified)	-0.2	104.3	-0.1	104.8
CNC(=O)c1cc(Oc2ccc3nc(NC4CCCCC4O)sc3c2)ccn1 (stereo unspecified)	0.1	106.3	-0.2	106.2
COC1C[C@H]2CCC(C)[C@@](O)(O2)C(=O)C(=O)N2CCCC[C@H]2C(=O)OC(C(C)CC2CCC(OP(C)(C)=O)C(OC)C2)CC(=O)C(C)C=C(C)C(O)C(OC)C(=O)C(C)CC(C)C=CC=CC=C1C (stereo partly specified)	-0.7[3.7 µM]	107.5	-0.2	105.4
CCCCCCCCc1cccc(NC(=O)C(N)COP(=O)(O)O)c1 (stereo unspecified)	-0.2	108.5	-0.2	100.5
CS(=O)(=O)c1ccc(C2=C(c3ccccc3)C(=O)OC2)cc1	0.0	109.6	0.0	103.2
CNCCC(Oc1cccc2ccccc12)c1cccs1 (stereo unspecified)	-0.1[3.7 µM]	92.1	-0.2	94.9
CNC(=O)C1OC(n2cnc3c(NCc4cccc(I)c4)nc(Cl)nc32)C(O)C1O (stereo unspecified)	-0.1	96.1	-0.1	98.6
O=C(O)c1cc(Cl)cc(Cl)c1O	-0.2	74.6	-0.2	75.9
NC(=O)NN=Cc1ccc([N+](=O)[O-])o1	0.2[3.7 µM]	81.6	0.0	93.4
CN(CCc1ccc(Cl)c(Cl)c1)CCN1CCCC1	-0.2	101.6	-0.1	104.7
Next compounds follow.
SMILES	p53 HeLa	p53 HeLa cells 24 h	p53 HeLa p53 24 h	p53 HeLa cells 48 h
NC(=O)c1ccc(N(C(N)=O)c2c(F)cccc2F)nc1-c1ccc(F)cc1F	-0.1	100.0	-0.1	104.5
CCn1cc(NC(=S)Nc2cc(Cl)ccc2OC)c(C(N)=O)n1	0.0[3.7 µM]	117.7	-0.3	112.9
Cc1cc(-c2ccc(-c3cccc(O)c3)s2)ccc1O	0.2	83.8	0.4	92.2
COC1C(O)CC(=O)OC(C)CC=CC=CC(OC2CCC(N(C)C)C(C)O2)C(C)CC(CC=O)C1OC1OC(C)C(OC2C[C@](C)(O)C(O)C(C)O2)C(N(C)C)C1O (stereo partly specified)	0.0[3.7 µM]	115.8	-0.3	111.5
CCc1nc(N)nc(N)c1-c1ccc(Cl)cc1	0.4	89.4	0.2	76.3
Cc1coc2c1C(=O)C(=O)c1c-2ccc2c(C)cccc12	-0.2[3.7 µM]	83.9	-0.4	92.3
CCc1ccc(OCc2ccccc2C(=O)Nc2ccc3nc(C)cc(N)c3c2)cc1	0.2[3.7 µM]	84.9	0.3	88.2
CCC1OC(=O)C(C)C(OC2C[C@@](C)(OC)C(O)C(C)O2)C(C)C(OC2OC(C)CC(N(C)C)C2O)[C@](C)(OC)CC(C)C(=O)C(C)C(O)[C@]1(C)O (stereo partly specified)	0.0[3.7 µM]	113.0	-0.3	109.7
CC(C)(C)NS(=O)(=O)c1cncc(-c2cc(F)c3nc(N)nn3c2)c1	0.0[3.7 µM]	118.1	-0.2	115.1
COc1ccc(C(=O)C(=O)c2ccc(OC)cc2)cc1	0.0	90.7	0.0	99.5
COc1ccc(CC(NC(=O)C(C)NC(=O)CN2CCOCC2)C(=O)NC(Cc2ccccc2)C(=O)[C@@]2(C)CO2)cc1 (stereo partly specified)	102.3*	52.6*	144.5*	39.6*
CCCCCC(=O)Nc1c(C)cc(Br)cc1C	-0.2	100.8	-0.1	105.7

Complete entries as entered above. Screens in order: p53 HeLa, p53 HeLa cells 24 h, p53 HeLa p53 24 h, p53 HeLa cells 48 h
COC1C(O)CC(=O)OC(C)CC=CC=CC(OC2CCC(N(C)C)C(C)O2)C(C)CC(CC=O)C1OC1OC(C)C(OC2C[C@](C)(O)C(O)C(C)O2)C(N(C)C)C1O (stereo partly specified) is listed with 0.0[3.7 µM], 115.8, -0.3, 111.5
CC(C)(Sc1cc(C(C)(C)C)c(O)c(C(C)(C)C)c1)Sc1cc(C(C)(C)C)c(OC(=O)CCC(=O)O)c(C(C)(C)C)c1 is listed with 0.2, 52.0, -0.1, 30.9
CC(=O)C1=C(O)C=C2Oc3c(C(C)=O)c(O)c(C)c(O)c3[C@]2(C)C1=O is listed with 0.0[3.7 µM], 107.2, 0.0, 105.5

Continued:
SMILES	p53 HeLa	p53 HeLa cells 24 h	p53 HeLa p53 24 h	p53 HeLa cells 48 h
COc1ccc(COc2cc3oc(=O)c4cc(C(C)O)ccc4c3cc2OC)cc1 (stereo unspecified)	0.2	93.0	0.2	95.0
CCOc1cc2ncc(C#N)c(Nc3ccc(F)c(Cl)c3)c2cc1NC(=O)C=CCN(C)C	1.3	47.2	0.9	32.4
NC(Cn1ccc(=O)c(O)c1)C(=O)O (stereo unspecified)	0.3	116.6	0.1	116.3
COc1ccccc1OCC(O)CN1CCN(CC(=O)Nc2c(C)cccc2C)CC1 (stereo unspecified)	0.0	112.5	0.0	111.3
C=C(C)C1CC[C@]2(C(=O)O)CC[C@]3(C)[C@H](CC[C@H]4[C@@]5(C)CCC(O)C(C)(C)[C@H]5CC[C@]43C)[C@H]12 (stereo partly specified)	0.5	107.0	0.3	108.1
CC(C)c1cc(C(C)C)c(CC(=O)NS(=O)(=O)Oc2c(C(C)C)cccc2C(C)C)c(C(C)C)c1	-0.1	86.8	0.0	93.6
COc1ccc2c(c1)c(CC(=O)OCC(=O)O)c(C)n2C(=O)c1ccc(Cl)cc1	-0.1[3.7 µM]	109.9	-0.1	106.4
NC(CCCCNC(=O)OCc1ccc([N+](=O)[O-])cc1)C(=O)N1CCCC1 (stereo unspecified)	0.2	117.4	0.1	113.3
CC(=O)OC1C[C@@H]2CC[C@@H]3[C@@H](CC[C@]4(C)C(OC(C)=O)C([N+]5(C)CCCCC5)C[C@@H]34)[C@@]2(C)CC1[N+]1(C)CCCCC1 (stereo partly specified)	0.1[3.7 µM]	110.8	-0.1	106.9

Rewritten with two lines to a compound: part of the list above
Second line of a record – p53 HeLa | p53 HeLa cells 24 h | p53 HeLa p53 24 h | p53 HeLa cells 48 h
- COc1ccc2c(c1)c(CC(=O)OCC(=O)O)c(C)n2C(=O)c1ccc(Cl)cc1
 : -0.1[3.7 µM] | 109.9 | -0.1 | 106.4
- COc1ccc(COc2cc3oc(=O)c4cc(C(C)O)ccc4c3cc2OC)cc1 (stereo unspecified)
 : 0.2 | 93.0 | 0.2 | 95.0
- NC(Cn1ccc(=O)c(O)c1)C(=O)O (stereo unspecified)
 : 0.3 | 116.6 | 0.1 | 116.3
